VDR inhibitor: Inhibitors of the vitamin D receptor (VDR): qHTS; VDR-SRC2-3 peptide fluorescence polarization, 2 h; hit rate 0.93% among 400,000; Vitamin D3 receptor (Homo sapiens), P11473; Potency, µM, for the others: max response, negative = inhibition, hits mostly inhibitors; active = well fitted inhibition curve with a large enough effect; inconclusive = small, poorly fitted or top-dose-only effect, or another doubt; inactive = no such curve, though single readings can be large or run the other way; also: series mostly up to about 120 µM
Target sequence (P11473 whole entry, looked up): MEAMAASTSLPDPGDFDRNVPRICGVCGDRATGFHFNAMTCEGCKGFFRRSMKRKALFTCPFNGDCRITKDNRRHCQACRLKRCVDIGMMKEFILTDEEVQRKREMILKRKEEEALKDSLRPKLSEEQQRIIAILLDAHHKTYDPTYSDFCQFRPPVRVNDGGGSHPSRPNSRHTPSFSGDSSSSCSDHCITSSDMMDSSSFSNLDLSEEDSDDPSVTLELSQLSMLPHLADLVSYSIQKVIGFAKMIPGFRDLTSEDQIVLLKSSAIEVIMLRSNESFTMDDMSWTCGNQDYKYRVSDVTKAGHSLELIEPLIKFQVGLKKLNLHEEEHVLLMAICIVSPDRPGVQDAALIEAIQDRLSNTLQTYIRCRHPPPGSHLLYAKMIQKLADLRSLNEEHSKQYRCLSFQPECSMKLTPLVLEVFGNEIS
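The screen uses fluorescence polarization to detect compounds that interfere with recruitment of the SRC2-3 coactivator peptide to VDR; plates are read after 2 h at room temperature.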
Starred values were filed as active, the others as inactive; ? = inconclusive; & = joins results of further samples; [ ] = remark or other dose. % is scaled to controls: 0 for no effect and ±100 for the full control effect; potency is read from the fitted curve at half-maximal effect. An excerpt (hit frequency here may not be typical).

VDR inhibitor	smiles
-4%	Cc1ccc(S(=O)(=O)Nc2cc(Cl)c3oc4c(c3c2)C(=O)CC(C)(C)C4)cc1
6%	OC(COc1c(F)cc(Br)cc1F)CN1CCOCC1 (stereo not given)
2%	CCOc1nc2cnccc2n(CC(=O)Nc2cccc(C)c2C)c1=O
11%	COc1ccc(-c2ccc(=O)n(CC(=O)Nc3ccc4c(c3)OCCO4)n2)cc1
-1%	COc1ccccc1-c1coc2cc(O)ccc2c1=O
18%	Cc1ccc(-n2ncc3c(N(C)C)ncnc32)cc1Cl
79µM*	CC(=O)N1N=C(c2c(-c3ccccc3)c3cc(Br)ccc3[nH]c2=O)CC1c1ccco1 (stereo not given)
15%	Cc1c(CNC(=O)c2c([N+](=O)[O-])cnn2C)cnn1C
15%	COc1ccc(C(=O)Nc2cc(Cl)ccc2Cl)c(OC)n1
-1%	CC(Sc1nnc(-c2cccnc2)n1C)C(=O)N1CCOCC1 (stereo not given)
15%	CC(=O)/C=C(\C)N=Nc1c(O)[nH]c2ccccc12
-14%	COc1ccc(C(=O)NC(=S)NNC(=O)c2cnccn2)cc1
-13%	CC(C)(C)NC(=O)/C(=C/c1ccccc1F)NC(=O)c1ccc([N+](=O)[O-])cc1
2%	CC(=O)c1ccc(OCC(C)C)c(CC(C(N)=O)C(N)=O)c1
-10%	Cc1[nH][nH]c(=O)c1N=Nc1ccccc1Cl
0%	CC1CCc2c(sc3nc(CSc4ncn[nH]4)[nH]c(=O)c23)C1 (stereo not given)
-2%&13%	CCn1c(C)c(C)c2cc(C(=O)N3CCN(c4cccc(C)c4C)CC3)ccc21
17%	COc1cc(NC(=O)c2ccc(C(C)(C)C)cc2)c(OC)cc1NC(=O)CN1CCCCC1
-21%	COC(=O)Cn1c(CN2CCOCC2)nc2c1c(=O)[nH]c(=O)n2C
-18%	COc1ccc(S(=O)(=O)N2CCN(c3cc(-c4ccccc4)nc4ncnn34)CC2)cc1
-7%	Cc1sc(NC(=O)C2=COCCO2)nc1-c1ccc(Cl)cc1
25%	Cc1ccc(C)c(NC(=O)Nc2nnc(N(CC(C)C)CC(C)C)s2)c1
-25%	CN1CC[n+]2cnc3ccccc3c21
-11%	O=C1NCC(O)=C1C=NCCO
2%	Cc1ccc(NC(=O)c2c(Nc3ccccc3C)sc(C(=O)c3ccccc3)c2N)cc1
-5%	CNCCCOc1ccc(C)cc1OC
-6%	CNC(=O)C1(C(F)(F)F)C/C(=C\Cc2ccccc2)CCCO1 (stereo not given)
-8%	COCCNc1ncnc2ccc(-c3c(C)noc3C)cc12
5%	COc1ccccc1/C=C/C(=O)OC(C)CN1CCOCC1 (stereo not given)
?	CCC(=O)Nc1nnc(S(=O)(=O)N(C)Cc2ccco2)s1

Six entries picked at random from those above:
VDR inhibitor	smiles
-21%	COC(=O)Cn1c(CN2CCOCC2)nc2c1c(=O)[nH]c(=O)n2C
25%	Cc1ccc(C)c(NC(=O)Nc2nnc(N(CC(C)C)CC(C)C)s2)c1
-6%	CNC(=O)C1(C(F)(F)F)C/C(=C\Cc2ccccc2)CCCO1 (stereo not given)
-11%	O=C1NCC(O)=C1C=NCCO
-2%&13%	CCn1c(C)c(C)c2cc(C(=O)N3CCN(c4cccc(C)c4C)CC3)ccc21
-7%	Cc1sc(NC(=O)C2=COCCO2)nc1-c1ccc(Cl)cc1

Continued.
VDR inhibitor	smiles
0%	O=c1/c(=C\c2cccc(O)c2)sc2nc(-c3ccccc3)c(-c3ccccc3)n12
?	COc1cc(/C=C(\C#N)C(=O)Nc2ccc(C(=O)O)cc2)ccc1OC(=O)c1cccc(F)c1
0%	Cc1nc2ccc([N+](=O)[O-])cc2c(=O)n1Cc1cccc(F)c1
-8%	CC(C)CCNC(=O)Cn1cc2c(n1)CCCCC2
-26%	COc1ncc2nc(-c3ccc(Cl)cc3)c(=O)n(C[C@H]3CCCO3)c2n1
7%	NNC(=O)c1ccc(O)cc1O
-9%	Cc1cccc(COc2ccc(/C=N/NC(=O)c3nnn(-c4nonc4N)c3COc3ccc(F)cc3)cc2)c1
-12%	COCCOc1cnn(-c2cc(Oc3ccc(C)cc3)ncn2)c(=O)c1Cl
?	Cc1ccc(Cl)cc1NC(=S)NCc1cccn1C
4%	COc1ccccc1CNS(=O)(=O)c1cc(C(=O)NCC2CCCO2)c(Cl)cc1Cl (stereo not given)
-29%	O=C(O)c1cc(-c2ccc(/C=N/Nc3ccc(Cl)cc3)o2)ccc1Cl
9%	O=C(Cc1ccccc1)N(Cc1cccnc1)c1nc2c(F)cccc2s1
-1%	Cc1cn(C2CC3OCC3O2)c(=O)[nH]c1=O (stereo not given)
-8%	CCc1nc2c(sc3nc4c(cc32)COC(C)(C)C4)c(=O)n1CCN(CC)CC
3%	COC(=O)c1ccn(CC(=O)NC2CCCCC2)n1
-6%	CCc1ccc(Oc2c(C(F)(F)F)oc3c(CN4CCC(C)CC4)c(O)ccc3c2=O)cc1
8%&9%	COc1ccc(C2/C=C\CN(C(=O)CC(C)C)CC(=O)N2Cc2ccc(F)cc2)cc1 (stereo not given)
-10%	CC(C)N(CCNC(=O)c1oc(=O)c2ccccc2c1-c1ccccc1)Cc1ccco1
-6%	CCn1c(CNC(=O)COc2ccc(C(C)C)cc2)nnc1SCC(=O)NC1CCCCC1C (stereo not given)
-7%	N#CCc1ccc(NS(=O)(=O)c2cccs2)cc1
1%	CSc1nsc(SC)c1NC(=O)Nc1ccccn1
8%	O=C(c1cc(S(=O)(=O)Nc2ccccc2F)c(Cl)cc1Cl)N1CCN(CCO)CC1
13%	Cc1ccc(C(=O)OCC(=O)NCCN2C(=O)CSC2=O)cc1
-5%	O=C(NNC(=O)C1COc2ccccc2O1)c1ccccc1O (stereo not given)
-11%	COc1ccccc1N1CCN(S(=O)(=O)c2c(C)[nH]c(C)c2C(=O)N2CCCC2)CC1
-9%	Cc1cccn2c(=O)nc(SCC(=O)Nc3ccc4c(c3)OCO4)nc12
-1%	CCc1ccc(S(=O)(=O)c2nnn3c2nc(N2CCC(C)CC2)c2cc(Cl)ccc23)cc1
-9%	COc1ccc(/C=C/C(=O)C(C(N)=O)=C2SCCS2)cc1
12%	CCOC(=O)CSc1nc2ccccc2n1CC(=O)NC(C)(C)C
-11%	Cc1sc2nc(CSc3ccccc3)nc(N3CCN(C)CC3)c2c1C

Exported with each value named: entries from further up
CCc1ccc(S(=O)(=O)c2nnn3c2nc(N2CCC(C)CC2)c2cc(Cl)ccc23)cc1
  VDR inhibitor = -1%
COc1ccc(/C=C/C(=O)C(C(N)=O)=C2SCCS2)cc1
  VDR inhibitor = -9%
CCOC(=O)CSc1nc2ccccc2n1CC(=O)NC(C)(C)C
  VDR inhibitor = 12%
Cc1sc2nc(CSc3ccccc3)nc(N3CCN(C)CC3)c2c1C
  VDR inhibitor = -11%

Further entries.
VDR inhibitor	smiles
?	CCOC(=O)N1CCN(CCC(=O)c2ccc(OC)cc2)CC1
-9%	COc1cc(C)ccc1OCCSc1nc2ccc(NC(=O)c3ccccc3F)cc2s1
-24%	Cc1c(-c2ccccc2)nnn1-c1ccc(F)cc1F
1%	Cc1ccc(N2CC(C(=O)Nc3nnc(SCCN4CCOCC4)s3)CC2=O)cc1 (stereo not given)
-6%	Cc1cc2nnc(SCC(=O)Nc3ccc(Cl)cc3)n2c(N)n1
-1%	CCN1C(N(C)CCc2c[nH]c3ccccc23)=N[C@@H](c2cccc(C(F)(F)F)c2)C(C(=O)OC)=C1C
-3%	C#CCNC(=O)c1cc2sccc2n1C
-24%	COc1cc(C2C(C#N)=C(N)Oc3n[nH]c(C)c32)cc2c1OCO2 (stereo not given)
-15%	N#Cc1ccccc1NC(=O)C(=O)NCCCN1CCCC1=O
21%	O=C(Nc1cc(Cl)cc(Cl)c1)c1ccc(F)c(S(=O)(=O)N2CCCCCC2)c1
11%	Cc1cc(=O)n2[nH]c(SCc3ccccc3)nc2n1
-7%	COc1ccc(-c2ccc(OC)c(C3C4C=CCCC4(C)C(=O)N3Cc3ccccc3)c2)cc1OC (stereo not given)
69%[activator]	O=C(O)c1cc2c(s1)CCCC2
114%	O=C(Cc1ccccc1)Nc1ccccc1N1CCN(c2ccccc2)CC1
12%	Cn1cc(Br)c(C(=O)NC2C3CC4CC(C3)CC2C4)n1 (stereo not given)
0%	Cc1ccc(NC(=O)C(C)c2ccc([N+](=O)[O-])cc2)cc1Cl (stereo not given)
5%	C=CCN(Cc1cccs1)C(=O)CN1CCN(S(=O)(=O)c2ccc3c(c2)OCCCO3)CC1
-4%	COc1cnc(-c2ccccn2)nc1Oc1cccc(Cl)c1
12%	O=C(CCC1CCCN(C(=O)c2ccccc2Cl)C1)N1CCN(c2ccccn2)CC1 (stereo not given)
?	Brc1ccc(-c2csc(NNC3=NCCCCC3)n2)cc1
-5%	CCOC(=O)C1(CCOc2ccccc2)CCN(Cc2cccc(OC)c2OC)CC1
-9%	Cc1ccccc1NC(=S)N(CCCN1CCOCC1)Cc1ccccn1
0%	C=CCNC(=O)C1CC(=O)N(c2ccc(OCc3ccccc3Cl)cc2)C1 (stereo not given)
1%	CC(C)(CO)C(O)C(=O)NCCCC(=O)O (stereo not given)
9%	COC(=O)C1CCN(C(=O)C2CCC(=O)N(CCc3cccc(F)c3)C2)CC1 (stereo not given)
-15%	CC1=C(C(=O)OCc2ccccc2)C(c2ccc3ccccc3c2)NC(=O)N1CCCC(=O)O (stereo not given)
0%	O=C(CSc1ccc2nnc(CCNC(=O)c3ccccc3)n2n1)NCc1ccccc1
12%	COc1ccccc1CNC(=O)CN(C)CC(=O)Nc1ccc(F)c(F)c1F
4%	COc1ccc(CNS(=O)(=O)c2ccccc2Br)cc1
-1%	COc1cc(C(=O)NCc2nnc(SCC(=O)N3CCc4ccccc43)o2)cc(OC)c1OC

Sorted by length of the SMILES (smallest number first): six of the compounds above
VDR inhibitor	smiles
-7%	N#CCc1ccc(NS(=O)(=O)c2cccs2)cc1
-21%	COC(=O)Cn1c(CN2CCOCC2)nc2c1c(=O)[nH]c(=O)n2C
0%	C=CCNC(=O)C1CC(=O)N(c2ccc(OCc3ccccc3Cl)cc2)C1 (stereo not given)
1%	Cc1ccc(N2CC(C(=O)Nc3nnc(SCCN4CCOCC4)s3)CC2=O)cc1 (stereo not given)
8%	O=C(c1cc(S(=O)(=O)Nc2ccccc2F)c(Cl)cc1Cl)N1CCN(CCO)CC1
-4%	Cc1ccc(S(=O)(=O)Nc2cc(Cl)c3oc4c(c3c2)C(=O)CC(C)(C)C4)cc1

(list continues)
VDR inhibitor	smiles
?	CC/C(C)=N/NC(=O)c1[nH]c2ccc(C)cc2c1-c1ccccc1
-5%	CCOCCCNC(=O)C1CCN(S(=O)(=O)c2cc(Br)cc3c2N(C(=O)CC)CC3)CC1
23%	COc1ccccc1C1CCN(C(=O)c2ccccc2)CC1
-8%	COc1ccc(S(=O)(=O)NC(C)C(=O)O)cc1 (stereo not given)
-4%	C=CCN1C(=O)c2ccc(C(=O)Nc3ccccn3)cc2C1=O
8%	CC(=O)c1ccc(S(=O)(=O)Nc2ccc(C(=O)N(C)CC(=O)Nc3cccc(C)c3C)cc2)cc1
-10%&-6%	COc1ccc(-c2ccc(-c3cc(=O)oc4c(C(C)C)ccc(C)c34)cc2)cc1
9%	CCCOc1ccc2c(CC)cc(=O)oc2c1C
3%	c1ccc2c(c1)CCc1c-2nc2ccccc2c1N1CCOCC1
-16%	COc1ccc2[nH]cc(CCNc3ccnc(-c4c(C)noc4C)n3)c2c1
-8%	Cc1csc(NC(=O)c2sccc2C)n1
-21%	CCCc1nnc(NC(=O)c2cccc(OC)c2)s1
-2%	COc1ccc(CNC(=O)CN(C(=O)c2csnn2)c2cccc3ccccc23)cc1
-10%	COc1ccc(-c2nc3oc4cc(OC)ccc4c(=O)c3c(=O)n2Cc2ccco2)cc1
-5%	O=C(Nc1nc2ccccc2s1)C1CC(=O)N(c2ccc(Cl)cc2)C1 (stereo not given)
-2%	O=C(NCCCN=C1NS(=O)(=O)c2ccccc21)c1ccc(S(=O)(=O)N2CCCCC2)cc1
-11%	COc1ccc(-c2noc(CCC(=O)NCc3ccc(C)cc3)n2)cc1
-5%	COC(=O)N/N=C/c1ccc(/C=N/NC(=O)OC)cc1
-9%	C=CCn1c(SCC(=O)Nc2c(C)n(C)n(-c3ccccc3)c2=O)nc2sc(C)c(-c3ccccc3)c2c1=O
-11%	CC(=O)OC1CC[C@@]2(C)C(CC[C@@]3(C)C2CC=C2C4CC(C)(C)CC[C@]4(C)CC[C@@]23C)C1(C)C (stereo not given in full)
7%	CSCCC(NC(=O)c1ccc(Cl)cc1Cl)C(=O)N1CCN(C(=O)c2ccccc2)CC1 (stereo not given)
-6%	O=C(NCC(=O)N1CCN(c2ccc([N+](=O)[O-])cc2)CC1)c1ccco1
?	Cc1cc(NC(=O)c2ccc([N+](=O)[O-])cc2)no1
5%	Cc1ccc(NC(=O)CN(C)C(=O)COC(=O)C(C)(C)Oc2ccc(Cl)cc2)cc1
-17%	Oc1ccc(N=Cc2cc(Br)c(N3CCOCC3)o2)cc1
2%	Cc1cc(CN(C)C(=O)c2cc(COc3ccc4ncccc4c3)on2)on1
44%[activator]	CCOc1ccc(CN(C)C(=O)CNC(=O)c2ccccc2)cc1
2%	COc1cc(C(=O)OCCCN(C)C)cc(OC)c1OC
18%	COc1ccc(C(=O)OCn2nnc3ccccc3c2=O)cc1OC
6%	COc1ccc(CCNC(=O)Cc2c(C)c3c(cc(C)c4c(C)c(C)oc43)oc2=O)cc1OC
-27%	COC(=O)C1CCN(c2cc(=O)n(-c3ccc(OC)cc3)c(=O)[nH]2)CC1
-8%	CCC1(c2ccc(OC)cc2)NC(=O)N(CC(=O)N2CCc3ccccc32)C1=O (stereo not given)
-8%	O=C(CCCc1nc2ccccc2s1)NCc1cccnc1
